# HSD17B inhib – blocks hydroxysteroid 17-beta dehydrogenase activity | Q99714 | recombinant HSD17B10, NADH fluorescence kinetic; many of its hits are not listed in these tables | Potency, µM (top dose mostly 57.1 µM), inactives show top-dose activity change, negative = inhibition, usual class: inhibitors | 75,000 tested, 7.6% active; active means well fitted inhibition curve with a large enough effect; inconclusive means small, poorly fitted or top-dose-only effect; inactive means no such curve, though single readings can be large or run the other way;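 further: the protocol describes HADH2 (HSD17B10) and not the HSD17B4 of the title; nearly all actives have a fitted effect of over 70% in size; most hits overshoot -100% by far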
#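 Activity followed as NADH fluorescence increase (ex 360, em 450 nm) every 30 seconds for 4 min, using final 90 uM beta-hydroxybutyryl CoA and 1 mM NAD+. Recombinant His-tagged enzyme, 20 nM, pH 9.0 Tris buffer, 15 min compound preincubation.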
# An asterisk follows results filed as active; i = inactive; ? = inconclusive; [ ] = another dose, or the depositor's remark. On the % scale 0 is the no-effect control and ±100 the full control effect; potency means the concentration at half of the fitted maximal effect. Only part of the results is shown, so the mix of outcomes need not match the whole.
Structure	HSD17B inhib
CC1CCCCN1C(=O)CSc1nnc(-c2ccc(Cl)s2)o1 (stereo unspecified)	31.6µM*
COc1ccccc1CN(Cc1cc2cc(C)ccc2[nH]c1=O)Cc1nnnn1Cc1ccco1	31.6µM*
O=C(c1ccco1)N1CCN(C2CCCC2)CC1	-6.0%
NCCNS(=O)(=O)c1cccc2c(Cl)cccc12	?
Cn1c(=O)n(CC(=O)Nc2cccnc2)c2ccccc21	2.1%
CCOC(=O)c1cc(CN2CCOCC2)oc1-c1ccccc1	-7.5%
O=C(O)CSc1cc(-c2ccccc2)nc2ccccc12	-2.3%[11.4 µM]
COc1cccc(CNC2CCCC2)c1	0.3%
Cc1ccc(NC(=O)CSCC(N)=O)cc1C	25.1µM*
O=C(OCCN1C(=O)CCC1=O)c1ccc(S(=O)(=O)N2CCCCC2)cc1	-3.6%
Cc1cc(C(=O)Nc2sc(C)c(C)c2C#N)c(C)o1	?
CNS(=O)(=O)c1cccc2cccnc12	1.0%
Cc1cccc(N(CC(=O)NCc2ccccc2)C(=O)Cn2nnc(-c3ccc(C)o3)n2)c1	5.2%
CCC1CCCCN1C(=O)N[C@@H](CCSC)C(=O)OC (stereo partly specified)	7.9%
CCCCNC(=O)C(c1ccc(OCC(=O)OC)c(C(=O)OC)c1)N(Cc1ccccc1)C(=O)CCCCCN1C(=O)NC(c2ccc(-c3ccccc3)cc2)C(C(=O)OCc2ccccc2)=C1C (stereo unspecified)	1.7%
CCN1C(=O)CSc2ccc(C(=O)NCCCN3CCOCC3)cc21	-2.6%
COc1ccc(C2(O)CCN(C(=O)NC3CCCCC3)CC2)cc1	3.6%
Cc1cc(N2CCN(C)CC2)nc2ccc(NC(=O)CCC(=O)NCc3ccco3)cc12	20µM*
Cc1ccc(-c2noc(CCCC(=O)Nc3cccnc3)n2)cc1	10.9%
COc1ccc(N2CCN(C(=O)CNC(=O)Cn3c(C)cc4ccccc4c3=O)CC2)cc1	-9.4%
Cc1cccc(-c2nc(CS(=O)CC(=O)NCCCSC3CCCCC3)c(C)o2)c1 (stereo unspecified)	-8.0%
COc1ccc(CCNC(=O)C2CC(=O)N(c3ccccc3)C2)cc1OC (stereo unspecified)	-0.5%
O=C1CC(N2CCN(C/C=C/c3ccccc3)CC2)C(=O)N1Cc1ccc(N2CCCC2=O)cc1 (stereo unspecified)	-3.3%
COC(=O)[C@@H]1C[C@@H]2CC[C@@H](O)C[C@@H]2N1Cc1ccc(-c2ccccc2)cc1	-0.4%
CC1Cc2ccccc2N1C(=O)COC(=O)c1ccc(S(=O)(=O)N(C)C)cc1 (stereo unspecified)	10.0%

# Quoted at random: 7 records from the list
Structure	HSD17B inhib
COC(=O)[C@@H]1C[C@@H]2CC[C@@H](O)C[C@@H]2N1Cc1ccc(-c2ccccc2)cc1	-0.4%
CNS(=O)(=O)c1cccc2cccnc12	1.0%
O=C1CC(N2CCN(C/C=C/c3ccccc3)CC2)C(=O)N1Cc1ccc(N2CCCC2=O)cc1 (stereo unspecified)	-3.3%
Cc1ccc(NC(=O)CSCC(N)=O)cc1C	25.1µM*
CCC1CCCCN1C(=O)N[C@@H](CCSC)C(=O)OC (stereo partly specified)	7.9%
COc1ccc(N2CCN(C(=O)CNC(=O)Cn3c(C)cc4ccccc4c3=O)CC2)cc1	-9.4%
O=C(O)CSc1cc(-c2ccccc2)nc2ccccc12	-2.3%[11.4 µM]

# Carrying on:
Structure	HSD17B inhib
Nn1c(SCC(=O)NC2CCCc3ccccc32)nnc1-c1cccs1 (stereo unspecified)	7.8%
C=CCn1c(Br)nc2c1c(=O)n(C)c(=O)n2C	3.6%
COc1ccccc1NC(=O)c1ccc(NC(=O)CSc2nnnn2C)cc1	-1.2%
CC(C)c1c(C#N)c(N)nc(SCC(=O)c2cc3ccccc3oc2=O)c1C#N	-5.3%
CCOC(=O)CN(C(=O)CN1CCOCC1)c1ccc(Br)cc1	3.7%
CCOc1ccccc1N1CCN(S(=O)(=O)c2cccs2)CC1	-11.6%
COc1cc(N2CN=c3s/c(=C\c4ccccn4)c(=O)n3C2)cc(OC)c1OC	-3.7%
CCOc1ccc(N2C(=O)CC(N3CC(C)OC(C)C3)C2=O)cc1 (stereo unspecified)	0.2%
CC(=O)Oc1cccc(C(=O)O)c1OC(C)=O	2.7%
CCOC(=O)c1c(C)oc(NC(=O)COc2ccc(Cl)cc2C)c1C#N	-9.0%
CCCOc1ccc(Cn2cnc3ccccc32)cc1	5.6%
COCc1nc(-c2cc(OC)c(OC)c(OC)c2)no1	8.3%
O=C(OCC1CO1)C1CCCCC1C(=O)OCC1CO1 (stereo unspecified)	1.0%
CN(Cc1ccco1)c1ncnc2ccc(-c3ccccc3Cl)cc12	-9.9%
Cc1cc(OC(=O)c2ccccc2)n(CCC#N)n1	-0.9%
CC(C)COC(=O)C(C#N)c1nc2ccccc2nc1N1CCN(Cc2ccc3c(c2)OCO3)CC1 (stereo unspecified)	1.1%
COc1cc(S(=O)(=O)N2CCN(Cc3ccccc3)CC2)ccc1Br	-0.9%
Cc1cccc(N(CC(=O)NC2CCCCC2)C(=O)CCC(=O)Nc2cc(C)ccn2)c1	7.6%
COc1ccc(S(=O)(=O)NCCSC(C)(C)C)cc1Cl	-4.3%
O=C(c1ccc(Cl)cc1)c1ccc(OCC(=O)N2CCOCC2)cc1	3.7%
CC(=O)OC(C(=O)NC1CCCCC1)c1ccncc1 (stereo unspecified)	-1.2%
COc1ccc(CNC(=O)c2cc(C3CC3)on2)cc1	1.8%
O=C1CC(N2CCOCC2)C(=O)N1c1cc(Cl)cc(Cl)c1 (stereo unspecified)	-7.6%
C=C1C(=O)OC2CC1C(OC(C)=O)CC(C)=CCCC(C)=CCC[C@@]2(C)O (stereo partly specified)	-2.6%
CN(C(=O)c1ccncc1)c1nnc(-c2ccncc2)s1	i

# Additional structures follow.
Structure	HSD17B inhib
Cn1c(Cc2ccccc2)nnc1SCC(=O)c1ccc(Br)s1	5.2%
COc1ccc(OC)c(NC(=O)Nc2ccccc2C)c1	6.1%
CCOC(=O)C1CCN(C(=O)c2sc3nc(-c4ccc(F)cc4)cn3c2C)CC1	-1.2%
CCCCc1c(O)nc(SCC(=O)N2CCOCC2)[nH]c1=O	5.4%
COc1ccc(C(=O)Nc2cccc(C(=O)N3CCN(C)CC3)c2)cc1	10.4%
Cc1[nH]c2ccccc2c1C(=O)CN1CCCCC1C (stereo unspecified)	6.2%
O=C(O)c1ccc(S(=O)(=O)c2ccccc2)cc1	5.3%
COc1cc(C[C@H]2C(=O)OC[C@@H]2Cc2ccc(OC)c(OC)c2)ccc1O	-0.6%
COc1ccc(CCC(=O)N2CCN(C3CCCCC3)CC2)cc1	12.0%
O=C(c1csnn1)N1CCC[C@@]2(CCN(c3ccccn3)C2)C1	-12.6%
O=C(Nc1ccccc1Cl)NC1(C(=O)NCCCN2CCOCC2)CCCCC1	2.9%
Nc1nc(N2CCCCC2)nc2ccccc12	?
Cc1ccc(SCC(=O)N2CCOCC2)cc1	6.7%
O=C(NCc1ccccn1)c1nnc(Cc2ccc(Cl)cc2)o1	-4.1%
COc1ccccc1Oc1coc2cc(OC(=O)N3CCOCC3)ccc2c1=O	-1.1%
CCOc1cccc(C2C(C(=O)c3ccc(C)o3)=C(O)C(=O)N2Cc2ccncc2)c1 (stereo unspecified)	7.4%
C#CCCCO/N=C1/C[C@@H](O)[C@@H](O)[C@@H]2[C@H]3C(=O)N(c4ccc(F)cc4F)C(=O)[C@@H]3CC[C@H]12	0.5%[11.4 µM]
CCN(CC)C(=O)COc1ccc(CC(=O)O)cc1OC	-10.6%
CCOC(=O)c1cc2occc2n1CC(=O)N1CCOCC1	5.8%
Nc1ccc(CN2CCN(c3ccc4ccccc4n3)CC2)cc1	7.6%
O=C(Cc1ccc(Cl)c(Cl)c1)OCC(=O)c1ccc[nH]1	?
O=C(Nc1ccc(N2CCN(C(=O)c3ccc(Cl)cc3)CC2)cc1)c1cccnc1	5.4%
COc1ccc(OC)c(S(=O)(=O)N(C)CC(=O)N2CCN(c3cccc(Cl)c3)CC2)c1	-22.0%
COC(=O)CCSCC(=O)Nc1nnc(C)s1	?
COCOc1ccc(Br)cc1C(=O)/C=C\c1ccc2c(c1)OCO2	-5.1%[11.4 µM]

# Additional entries follow:
Structure	HSD17B inhib
CCOCCCNC(=O)C1CCCN1S(=O)(=O)c1ccc(Cl)cc1 (stereo unspecified)	0.7%
COc1ccc(C)cc1-n1nnnc1SCc1cc(=O)n2cc(C)ccc2n1	?
Cc1cc(N(C)C)nc(SC(C)C)n1	9.1%
CCOc1cc(C)c(C(C)C)cc1S(=O)(=O)N1CC(C)OC(C)C1 (stereo unspecified)	-0.8%
O=c1ccc2ccc(O)c(O)c2o1	?
CCCCn1c(SCc2ccc(Cl)cc2)nc2c1c(=O)[nH]c(=O)n2C	-19.1%
COc1cccc(Oc2cnc(N)nc2-c2ccc(OC)cc2O)c1	-13.7%
CCCC(=O)c1cc(F)c(N2CCN(S(=O)(=O)c3ccccc3)CC2)cc1C	?
N#CC1=C(N)C(C#N)(C#N)C2(CCC3(CC2)OCCO3)C2CC3(CC=C12)OCCO3 (stereo unspecified)	?
CC1CCC2(OC1)OC1CC3C4CCC5CC(O)CCC5(C)C4=CCC3(C)C1C2C (stereo unspecified)	1.6%
COCCNS(=O)(=O)c1cc(F)ccc1OC	4.1%
Cc1ccc(S(=O)(=O)N2CCN(S(C)(=O)=O)C2)cc1	3.5%
CCn1c(SCC(=O)Nc2nnc(C)s2)nnc1-c1ccncc1	18.3%
CCCn1c(-c2ccc(F)cc2)nc2c(NCCCN(C)C)nc(C)nc21	25.1µM*
COc1ccc(CCNC(=O)CN(C2CCCCC2)S(C)(=O)=O)cc1OC	2.9%
CC(C)(C)NC(=O)NC(=O)COc1ccccc1C#N	2.2%
O=C(CSc1nc2ccccc2c(=O)[nH]1)N1CCOCC1	-4.2%
Cc1ccc(-c2cc(-c3ccccc3Cl)[nH]n2)c(O)c1	0.3%
O=c1cc(-c2ccc(O)c(O)c2)oc2cc(OC3OC(CO)C(O)C(O)C3O)cc(O)c12 (stereo unspecified)	-22.0%
CC1C2CC(C(CN(C)C)/C2=N/O)C1(C)C (stereo unspecified)	-2.1%
CC(C)(C)[Si](C)(C)c1c2c(nc3ccc(OCc4ccccc4)cc13)-c1cccc(=O)n1C2	31.6µM*
O=C(O)/C=C\c1c2ccc(=O)c(O)c-2oc2c(O)c(O)ccc12	0.794µM*
CC(C)C(=O)Nc1ccc(C(=O)NCc2cccnc2)cc1	-5.7%
O=C(CSc1nc2ccccc2s1)N1CCN(C(=O)c2ccco2)CC1	-4.8%
Cc1ccc(C(=O)Nc2ccc3c(c2)OCO3)cc1S(=O)(=O)N1CCCC1	-5.6%

# Next structures follow.
Structure	HSD17B inhib
C[C@@H](N)/C(N)=N/O	10.4%[11.4 µM]
Cn1c(=O)[nH]c(=O)c2c1nc1n2CCCS1	9.4%
Cn1c(CNc2nc(-c3ccccc3)cs2)nnc1SCC(=O)OC1CCCCC1	-10.1%
CCOC(=O)C1=C(C)Nc2nc(C)nn2C1c1cc(OC)ccc1OC (stereo unspecified)	9.3%
Cc1cc(NC(=O)CSc2nnc(-c3ccc(Cl)s3)o2)no1	31.6µM*
Cc1nc2c3c(-c4ccccc4)nc(N4CCOCC4)nc3nn2c(C)c1CCC(=O)O	10µM*
O=C(O)CC/C=C\CC[C@H]1[C@@H](N2CCCCC2)[C@@H](O)C[C@@H]1OCc1ccc(-c2ccccc2)cc1	-3.3%
CN(C)/C=c1\sc2c(C#N)cc(C(=O)c3ccc(Br)cc3)n2c1=O	5.9%
N#Cc1ccc(C23CC4(C2)[C@H](CN(Cc2cccnc2)[C@@H]4c2ccccc2)C3c2ccc(C(F)(F)F)cc2)cc1 (stereo partly specified)	7.1%
CN1CCN(C(=O)c2cnn3c(C(F)F)cc(C4CC4)nc23)CC1	-3.6%
Cc1ccc(C)c(OCCOCCN2CCOCC2)c1	4.7%
CCN1/C(=C/C(C)=O)Sc2ccc(OC)cc21	-13.4%
O=C(O)CCC(=O)Nc1ccc(N2CCCCC2)c(C(=O)O)c1	5.5%
N#Cc1ccc(COC(=O)Cn2nnc(-c3ccccc3)n2)cc1	8.1%
COc1ccc(Cl)cc1C(=O)n1nc(C)cc1C	-11.4%
COc1ccccc1OCC(O)Cn1c(=N)n(CCN2CCCCC2)c2ccccc21 (stereo unspecified)	11.4%
COc1ccc(-c2noc(CN(C)S(=O)(=O)c3ccc(C)cc3)n2)cc1	-5.7%
CC(C)C(=O)NCCc1nc2ccccc2n1C	2.0%
O=C(CSc1n[nH]c(-c2ccncc2)n1)NCCc1ccccc1	3.4%
C=CCNC(=O)c1ccccc1Cl	-5.1%
CC1CN(c2nc3ccccn3c(=O)c2/C=C(\C#N)S(=O)(=O)c2ccccc2)CC(C)O1 (stereo unspecified)	2.4%
COc1ccc(C(=O)N2c3cc4c(cc3C(C)=CC2(C)C)OCO4)cc1	-0.1%
O=C(COc1ncnc2sccc12)Nc1ccc2c(c1)OCCO2	11.8%
Cc1csc(NC(=O)CNC(=O)OCc2ccccc2)n1	0.3%
CC(=O)c1cccc(NC(=O)N2CCc3ccccc3C2)c1	-1.4%
Cc1ccccc1NC(=O)c1cc(S(=O)(=O)N2CCOCC2)cs1	4.0%
CCCCC(CC)C(=O)Nc1ccccc1C#N (stereo unspecified)	5.7%

# High-throughput results as filed in PubChem.
